TRPML1 agonist: human mucolipin-1 channel agonism; AID 624414; hit rate 0.12% among 410,000; activation, % (no concentration beside the values); TRPML1-expressing cells, Ca2+ dye fluorescence, FDSS; host cell line not named in the record; reference of the full effect not given here; Q9GZU1; in the data active = activation above about 50%; inconclusive = about 30% to 50%; inactive = below about 30%; also: 0% is about no effect; the text of the record puts the active cut at 80%
Target sequence (Q9GZU1 whole entry, looked up): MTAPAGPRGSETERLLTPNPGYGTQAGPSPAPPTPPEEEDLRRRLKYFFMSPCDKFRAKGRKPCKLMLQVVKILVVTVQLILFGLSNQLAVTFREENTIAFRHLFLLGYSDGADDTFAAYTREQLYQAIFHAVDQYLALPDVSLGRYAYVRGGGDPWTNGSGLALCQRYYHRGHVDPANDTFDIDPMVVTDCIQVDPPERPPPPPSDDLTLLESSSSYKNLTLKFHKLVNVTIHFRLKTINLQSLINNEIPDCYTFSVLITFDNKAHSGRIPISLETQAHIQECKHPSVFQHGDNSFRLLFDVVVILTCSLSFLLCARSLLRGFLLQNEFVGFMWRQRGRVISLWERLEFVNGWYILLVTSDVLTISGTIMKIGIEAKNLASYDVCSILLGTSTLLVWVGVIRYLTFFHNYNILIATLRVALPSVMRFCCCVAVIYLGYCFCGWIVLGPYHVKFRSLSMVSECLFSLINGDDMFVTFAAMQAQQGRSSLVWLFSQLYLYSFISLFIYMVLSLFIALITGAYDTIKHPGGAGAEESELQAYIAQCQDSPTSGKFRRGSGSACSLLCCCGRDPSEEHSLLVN
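Tet-induced TRPML1-DL cells, 1,500 per well, cultured overnight, were loaded with a no-wash Ca2+ dye for 45–90 min. Calcium fluorescence was recorded on the FDSS for 110 s after compound addition, before the EC80 agonist (4 uM 54-4) was added.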
Six1-Eya2 inh: inhibitors of human Six1/Eya2 interaction. AID 651725. hit rate 0.56% among 360,000. activity change, % (test concentration not listed). AlphaScreen GST-Six1/His-Eya2 binding, biochemical; stronger effect = lower value; control for the full effect not named in the record; in the data active = activity change below about -65%; inconclusive = about -30% to -65%; inactive = above about -30%; also: % is scaled to controls: 0 for no effect and ±100 for the full control effect; compound concentration not given in the record
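Six1/Eya2 binding was read as AlphaScreen signal after compounds were pinned into GST-Six1 plus His-tagged Eya2 (5X stock 250/500 nM) in pH 8.0 Tris/NaCl/TCEP buffer, beads added, then incubated 1 h, 37 C, dark.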
PINK1 modulator: modulators of PINK1 expression; hit rate 0.2% among 410,000; PINK1 immunofluorescence, high-content cytometry, 24 h; Potency, µM (titrated, usually from 76.6 µM), for inactives: top-dose activation (PINK1 increase), usual class: activators; active = well fitted activation curve with a large enough effect; inconclusive = small, poorly fitted or top-dose-only effect; inactive = flat fitted curve, though single readings scatter; cell line not stated here;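 also: potency is read from the fitted curve at half-maximal effect; % of control where 0% means no effect; nearly all actives have a fitted effect of over 65% in size; a mitochondrial uncoupler was the plate control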
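PINK1 protein, normally rapidly degraded, was detected by immunofluorescence after 24 hour compound treatment of a stable cell line. Titration data (5 concentrations) came from laser-scanning cytometry, with CCCP-treated wells as controls.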
D2 ag: agonists of human D2 dopamine receptor (beta-arrestin). P14416. DiscoveRx PathHunter D2 beta-arrestin, luminescence, 90 min; 100% = 57 uM dopamine signal. activation, % (test concentration not listed). hit rate 0.084% among 360,000; in the data active = activation above about 40%; inconclusive = about 15% to 40%; inactive = below about 15%; also: compound concentration not given in the record; the text of the record calls up to 30% inactive
Target sequence (P14416 whole entry, looked up): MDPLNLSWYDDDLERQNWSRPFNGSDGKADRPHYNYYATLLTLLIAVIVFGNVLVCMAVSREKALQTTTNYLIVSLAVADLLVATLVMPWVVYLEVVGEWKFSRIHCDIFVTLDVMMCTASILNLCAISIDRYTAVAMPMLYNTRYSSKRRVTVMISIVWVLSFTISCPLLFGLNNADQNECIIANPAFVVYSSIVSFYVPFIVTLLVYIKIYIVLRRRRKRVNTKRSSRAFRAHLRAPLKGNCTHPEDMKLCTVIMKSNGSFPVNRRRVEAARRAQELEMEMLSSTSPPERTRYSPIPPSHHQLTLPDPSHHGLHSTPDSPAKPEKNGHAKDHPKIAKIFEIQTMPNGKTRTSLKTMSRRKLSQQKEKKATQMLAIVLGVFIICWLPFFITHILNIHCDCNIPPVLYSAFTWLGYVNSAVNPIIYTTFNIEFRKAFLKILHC
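DiscoveRx PathHunter D2 beta-arrestin cells (2,100/well) attached overnight, then compound-stimulated 90 min at 37 C in HBSS/10 mM HEPES/0.1% Tween-20 buffer; beta-galactosidase complementation read by luminescence after 1 h at ambient temperature. Dopamine 57 uM final (EC100) as control.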
TRPML1 blocker: blocks the human TRPML1 channel | Q9GZU1 | TRPML1-inducible cells, Ca2+ dye fluorescence, FDSS; stronger effect = lower value; inhibition of EC80 agonist-evoked calcium signal | activity change, negative = inhibition, % (no concentration beside the values) | hit rate 0.02% among 390,000 | AID 624415; in the data active means activity change below about -50%; inconclusive means about -30% to -50%; inactive means above about -30%;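 also: stimulus is agonist 54-4 at its EC80 concentration; % is scaled to controls: 0 for no effect and ±100 for the full control effect; compound concentration not given in the record; the text of the record puts the active cut at -80%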
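TRPML1-DL cells, Tet-induced overnight (~16 h, 37 °C) at 1,500 cells/well, were loaded with Ca8 no-wash dye plus quencher for 45-90 min at room temperature. Compounds were pinned during FDSS kinetic reading; agonist 54-4 at EC80 (4 uM final) then added.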
CtBP-E1A inh: blocks the CtBP interaction with E1A | AlphaScreen GST-E1A/His-CtBP binding, 1536-well; stronger effect = lower value; control for the full effect not named in the record | activity change, % (concentration not given with the values) | hit rate 0.49% among 340,000 | AID 651724; in the data active means activity change below about -65%; inconclusive means about -30% to -65%; inactive means above about -30%; also: % is scaled to controls: 0 for no effect and ±100 for the full control effect
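Homogeneous bead-based format: GST-tagged E1A captured on glutathione donor beads, His-tagged CtBP on nickel acceptor beads; compounds precede bead addition by 2 h at 37 °C.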
* hit, by the source's call; ? = inconclusive; . = not tested or not shown; & = joins results of further samples; [ ] = dose if it differs, or a comment.

SMILES | TRPML1 agonist | Six1-Eya2 inh | PINK1 modulator | D2 ag | TRPML1 blocker | CtBP-E1A inh
Nc1nc(N)c(N=Nc2ccc(C(=O)O)cc2)c(N)n1 | -0.4 | -3 | 3.7% | 4.5 | 17 | .
COCCn1c(SCc2ccccc2F)nc2ccccc2c1=O | 1.1 | 5 | 2.6% | -4.4 | 7 | 23
O=C(CCNC(=O)c1ccccc1Cl)Nc1cc(S(=O)(=O)N2CCOCC2)ccc1N1CCCC1 | -1.0 | -1 | 1.3% | -0.4 | 9 | ?
CC(C)(C)c1ccc(C(CC(=O)O)NC(=O)Cc2ccc(Cl)cc2)cc1 (stereo not drawn) | . | 8 | 3.8% | -1.5 | . | 8
CCn1c(=O)c2cc(C(=O)N(C)c3cc(C)ccc3OC)sc2c2ccccc21 | 2.7 | -25 | 13% | 1.9 | -2 | 0
O=C(O)C1=C[C@@H](O)[C@@H](O)[C@H](O)C1 | 0.2 | 2 | 0.3% | 3.9 | -2 | 5
COc1cccc(OCc2cc(=O)n3c(-c4ccccc4)csc3n2)c1 | 1.1 | . | 6.1% | . | -5 | .
CC(C)CCN(C(=S)NC(=O)C1CCCCC1)c1c(N)n(Cc2ccccc2)c(=O)[nH]c1=O | -1.8 | 9 | -1.4% | -3.8 | 4 | 6
CCc1ccc(S(=O)(=O)c2cn(C)c3cc(N4CCC(C)CC4)c(F)cc3c2=O)cc1 | -0.3 | . | 0.8% | . | -15 | .
C[C@@H]1CC[C@@]2(O[C@@H](CCO)C[C@@H](O)[C@@H]2O)O1 | -0.1 | 3 | 2.3% | 1.8 | -9 | 0
O=C1C=CC(=O)c2c(O)c(N3CCN(CCO)CC3)c(Cl)c(O)c21 | 3.5 | ? | -1.7% | -5.6 | -4 | -13
c1coc(CNc2ncnc3ccccc23)c1 | 1.9&-0.3 | -1 | -1.4%&-0.1% | 2.3 | -17 | 2
Cc1ccc(NC(=O)CN2C(=O)NC3(CCCc4ccccc43)C2=O)c([N+](=O)[O-])c1 (stereo not drawn) | 0.7 | 7 | -0.1% | 4.9 | -24 | -2
C/C=C/c1ccc(OCCCn2cncn2)c(OC)c1 | 0.1 | 0 | -0.1% | -0.1 | 15 | -1
O=C(Nc1ccc(Cl)c(S(=O)(=O)N2CCCCC2)c1)c1cnccn1 | -0.3 | 0 | 1.4% | -3.4 | 22 | -4
CN1CCN(c2nc3nonc3nc2N2CCN(C)CC2)CC1 | 4.5 | 2 | 0.3% | 0.7 | 0 | 13
CC(C)(C)c1ccc(C(=O)NCCC(=O)NCc2ccco2)cc1 | 0.4 | -1 | 2.0%[38.3 µM] | -0.4 | 8 | 1
Cc1ccccc1NC(=O)c1ccc2nc(Cc3ccccc3)oc2c1 | 2.1 | . | 2.2% | . | -11 | .
CSc1ccc(Cl)c(C(=O)Nc2ccc(N3CCOCC3)cc2)c1 | -0.6 | -9 | 1.9% | -0.5 | -5 | -11
COc1ccccc1NC(=O)CCN1CCC(C(N)=O)CC1 | 0.3 | . | -0.6% | . | 11 | .
O=S(=O)(NCCC(c1ccc(F)cc1)c1ccco1)c1ccccc1 (stereo not drawn) | 2.8 | -17 | ? | 0.9 | 10 | -5
CCOC(=O)c1cc(S(=O)(=O)N2CCN(c3ccccc3OC)CC2)[nH]n1 | 1.1 | . | 1.1% | . | -7 | .
O=C(CN1C2=NCCCN2c2ccccc21)c1cccc(Br)c1 | -0.2 | -9 | 1.1% | -6.9 | -14 | 7
Cc1cccc(N=C2NC(=O)/C(=C/c3cn(C)c4ccccc34)S2)c1 | 4.7 | -5 | 0.1% | -2.4 | 36 | -4
CC1CCC(C(=O)NC(C(=O)N2CCN(c3ccccn3)CC2)C(C)C)CC1 (stereo not drawn) | -0.3 | 7 | 2.1% | -2.9 | -3 | 9
COc1ccc(Cl)cc1NC(=O)NCC1CCN(C(=O)OC(C)(C)C)CC1 | -0.3 | 17 | -1.1% | -7.9 | 0 | -5
Cc1ccc(NC(=O)CSc2nnc(Cc3ccccc3)o2)c(C)c1 | -0.8 | 5 | -0.6% | -2.8 | 6 | 11
O=C(CSc1nccn1-c1ccc(F)cc1)NCc1ccc(F)cc1 | -1.0 | 2 | 0.7% | -5.6 | 43 | 3
O=C(c1ccccc1)N1CCN(C(=S)NCCc2ccccc2)CC1 | 0.0 | -4 | -0.6% | 5.6 | 37 | .
Cc1ccc(-n2c3nc(=O)n(C)c(=O)c-3cc3c(Cl)cccc32)c(C)c1 | 1.2 | . | 2.4% | . | -3 | .
Cc1ccc(Cc2c(C3CCCCC3)nc3cc(C)c(Br)c(C)n23)cc1 | -0.2 | -10 | 3.5% | -1.7 | . | -7
NC(=O)NC(CC(=O)NCCc1ccccn1)c1ccccc1Cl (stereo not drawn) | -0.2 | -1 | -0.8% | -3.0 | -2 | 5
O=C(NCCc1ccccc1)c1cccs1 | 1.2 | 0 | -1.3% | -5.0 | 32 | 1
CCc1nnc(NC(=O)CCN(c2cc(C)cc(C)c2)S(=O)(=O)c2ccc(Cl)cc2)s1 | 4.1 | 5 | 3.4% | -2.1 | 21 | 4
CC(C)CN(C(=O)COC(=O)CCN1C(=O)c2ccccc2C1=O)C1CCS(=O)(=O)C1 (stereo not drawn) | -1.1 | 2 | -3.6% | -1.6 | -4 | 0
O=C(Nc1ccc(SC(F)F)cc1)C12CCC(CC1)C2 | 0.8 | 6 | 3.2% | -4.0 | -5 | -8

By substructure, those above with fluorine.
SMILES | TRPML1 agonist | Six1-Eya2 inh | PINK1 modulator | D2 ag | TRPML1 blocker | CtBP-E1A inh
COCCn1c(SCc2ccccc2F)nc2ccccc2c1=O | 1.1 | 5 | 2.6% | -4.4 | 7 | 23
CCc1ccc(S(=O)(=O)c2cn(C)c3cc(N4CCC(C)CC4)c(F)cc3c2=O)cc1 | -0.3 | . | 0.8% | . | -15 | .
O=S(=O)(NCCC(c1ccc(F)cc1)c1ccco1)c1ccccc1 (stereo not drawn) | 2.8 | -17 | ? | 0.9 | 10 | -5
O=C(CSc1nccn1-c1ccc(F)cc1)NCc1ccc(F)cc1 | -1.0 | 2 | 0.7% | -5.6 | 43 | 3
O=C(Nc1ccc(SC(F)F)cc1)C12CCC(CC1)C2 | 0.8 | 6 | 3.2% | -4.0 | -5 | -8

More results:
SMILES | TRPML1 agonist | Six1-Eya2 inh | PINK1 modulator | D2 ag | TRPML1 blocker | CtBP-E1A inh
O=C1CN(c2ccc(Br)cc2)C(=O)N1CC(=O)N1CCCc2ccccc21 | 1.0 | -5 | -1.9%[38.3 µM] | -1.1 | -7 | 2
Cc1ccc(CNS(=O)(=O)c2c(C)[nH]c(C)c2C(=O)N2CCCCC2)o1 | -0.9 | -1 | -0.4% | 1.2 | -4 | 1
CCN1C(=O)[C@H]2[C@@H](c3ccc(C)cc3)N3C(=O)N(c4ccc(OC)cc4)C(=O)[C@@]3(Cc3ccccc3)[C@H]2C1=O | -0.6 | 10 | -0.9% | -2.0 | -8 | 5
Cc1ccc(C)c(NC(=O)CCc2ccc(C)o2)c1 | -1.6 | 3 | -1.1% | 3.2 | -9 | .
CC(=O)NC12CC3CC(C1)CC(C(=O)Oc1ccc(N(C)S(=O)(=O)c4cc(C)ccc4C)cc1)(C3)C2 | 0.6 | -2 | -0.2% | 7.9 | 1 | -1
CCc1c(-c2ccccc2)nc2sc3c(c2c1N)CCCC3 | 1.5 | -2 | 18% | 3.8 | 68 | 3
CCOC(=O)CSc1ncnc2c1cnn2-c1ccc(Cl)cc1 | -0.2 | 7 | 2.0% | -3.4 | -12 | 4
O=C(O)c1cc(S(=O)(=O)NC23CC4CC(CC(C4)C2)C3)ccc1Cl | 3.2 | 2 | 3.2% | -2.9 | 0 | .
CCn1cnc2cc(NCc3cccc(OC)c3O)ccc21 | 0.1 | -6 | . | 0.2 | 9 | 14
COc1ccc(/C=C2\N=C(C)OC2=O)cc1OC(C)=O | 0.8 | 2 | 0.9% | -4.1 | -1 | -1
COc1ccc(-c2sc3ccc(N4CCOCC4)cc3c2-c2ccc(OC)c(F)c2)cc1 | -0.4 | -11 | 0.1% | -1.1 | 24 | -3
O=C1CC(CCC(=O)NC2CC2)c2ccccc2N1 (stereo not drawn) | -0.3 | 2 | 11%[38.3 µM] | -0.7 | -10 | 8
O=C(C[C@@H]1C/C=C\C[C@H](NC(=O)OCC2c3ccccc3-c3ccccc32)C(=O)OC[C@@H]2CCCN2C1=O)N[C@@H](CO)Cc1ccccc1 | 0.1 | 5 | 2.8% | -2.0 | -6 | -11
CCc1nn(CC(=O)Nc2cc(C)ccc2C)c(=N)s1 | -0.8 | 4 | -1.5% | 0.8 | 12 | 6
COc1ccc(S(=O)(=O)N2CCN(C(=O)c3ccco3)CC2)c(C)c1C | 0.0 | 0 | -1.1% | -2.9 | 3 | -2
C=CC[C@@H](CC(=O)N(CCO)Cc1ccccc1)C(=O)N[C@@H](COC(=O)[C@@H](CC=C)Cc1ccc(F)cc1)Cc1ccccc1 | 1.8 | -10 | 6.4% | 0.3 | 74 | -2
Cc1nn(-c2ccccc2)c(N)c1C1(O)C(=O)N(C)c2ccccc21 (stereo not drawn) | 0.3 | -3 | 1.5% | -1.2 | 6 | 15
Nc1ccc(C(=O)Nc2cccc(N)c2)cc1 | -0.1 | -3 | -0.4% | -5.1 | -8 | .
O=C(Cn1nc(CNc2ccc(Cl)cc2)[n+]2c1CCCCC2)c1ccccc1 | -0.7 | -6 | 0.2% | -3.3 | 10 | 2
CCOc1ccc(C2/C(=C(\O)c3ccc4c(c3)OCCO4)C(=O)C(=O)N2CCCn2ccnc2)cc1OC (stereo not drawn) | 0.6 | 3 | -0.2% | 2.5 | 0 | 1
Cc1cc(N2CCN(C)CC2)ccc1NC(=O)c1c2c(nc3ccccc13)CCN(Cc1ccccc1)C2 | 0.6 | -11 | 3.5% | 4.8 | 22 | -17
COc1ccc(NC(=O)c2cc(S(=O)(=O)N3CCCCC3)ccc2N2CCCCC2)cn1 | 1.5 | -8 | -1.8% | -2.4 | 5 | -9
Cc1ccccc1Cn1c2ccccc2c2cnn(CC(=O)NC(C)CCc3ccccc3)c(=O)c21 (stereo not drawn) | 0.6 | . | ? | . | -6 | .
CCCCc1nnc(NC(=O)CN(C)S(=O)(=O)c2ccc(C)cc2)s1 | -0.1 | 5 | 4.2% | -0.5 | -9 | 9
COc1ccc(-n2c(SCC(=O)NCC3CCCO3)nc3ccccc32)cc1 (stereo not drawn) | 7.1 | -5 | -1.4% | -7.3 | 28 | -2
O=C(c1ccco1)N(CCCN1CCOCC1)c1nc(-c2ccc(F)cc2)cs1 | -0.4 | -29 | . | -2.4 | 54 | 7
CCOc1ccccc1/C=N/NC(=O)CSc1n[nH]c(=O)[nH]c1=O | 0.3 | -5 | 0.8% | -6.5 | -16 | .
CCOC(=O)Cc1csc(SCC(=O)Nc2ccc3[nH]c(=O)[nH]c3c2)n1 | 0.2 | -3 | 0.6% | -1.6 | -10 | .

Screening data from PubChem BioAssay.
